From PubChem BioAssay
MT1-MMP reporter: inhibitors of MT1-MMP promoter transcription, cell-based, luciferase reporter, luminescence (AID 618); MT1-MMP promoter luciferase reporter cells, luminescence; calls from a first round at 10 µM; hits with a dose series show EC50 in µM; hit rate 0.62% among 87,000;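 active means over half of the reporter light lost at 10 µM or EC50 under 50 µM; inactive means the rest and hits that failed the dose series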;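 further: actives suppress MT1-MMP promoter-driven transcription so potencies describe inhibitors; HT1080 fibrosarcoma cells; overnight exposure; toxic or luciferase-blocking compounds were not removed from the actives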
WNV protease inh: inhibitors of WNV NS2B-NS3 protease, primary screen, biochemical, fluorogenic substrate | AID 577, 2007 | Genome polyprotein (West Nile virus), P06935 | z-score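 (tested at a level between 10 and 100 µM)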 | hit rate 0.18% among 65,000 | fluorogenic substrate Ex360/Em465; active compounds read low;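 active means z-score at -3 or under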;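 further: score is relative to mean and spread of the compound wells of a plate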
Target sequence (P06935 1371-1501 limits assumed): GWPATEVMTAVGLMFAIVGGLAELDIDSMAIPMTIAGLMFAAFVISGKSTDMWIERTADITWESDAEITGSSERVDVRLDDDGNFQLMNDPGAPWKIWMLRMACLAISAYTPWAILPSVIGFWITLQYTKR
Target sequence (P06935 1502-1679 limits assumed): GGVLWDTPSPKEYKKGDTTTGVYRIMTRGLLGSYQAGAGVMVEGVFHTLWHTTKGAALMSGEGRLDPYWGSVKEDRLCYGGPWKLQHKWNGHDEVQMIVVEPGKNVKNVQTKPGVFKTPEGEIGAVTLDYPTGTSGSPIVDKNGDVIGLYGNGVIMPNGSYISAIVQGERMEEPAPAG
Hsc70: Hsc70 inhibitors, probe displacement, primary screen, biochemical, fluorescence polarization (AID 568) | Heat shock cognate 71 kDa protein (Homo sapiens) | one-dose displacement, % at 20 µM; IC50 in µM for titrated hits | 83,000 tested, under 10 active | Hsc70 fluorescence polarization, probe displacement; higher % means a stronger effect; strong numbers were not always called active;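 active means displacement above 50% without optical interference and an IC50 on retest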;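 further: ATPase domain with a fluorescein-tagged ATP probe; 0% = vehicle and 100% = excess ADP; read after one hour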
An asterisk follows results filed as active; i = inactive; x = not tested or not shown; + = active, no number. A portion of the library, so the mix of outcomes need not match the whole.

Start of the data: the first 13 compounds (preview)
SMILES	MT1-MMP reporter	WNV protease inh	Hsc70
CC(=O)Nc1nc(C)c(S(N)(=O)=O)s1	i	0.33	5.7%
Cc1cc(C)n2nc(S(=O)(=O)N(CC(C)C)CC(C)C)nc2n1	i	-0.5	2.0%
CC1(C)Cc2nc3oc4c(NCc5ccccc5)ncnc4c3cc2CO1	i	-1.6	-3.1%
COc1ccc(N(Cc2ccccc2)C(=O)CSc2nnc(Cn3nnc4ccccc43)o2)cc1	i	x	-5.2%
CC(=O)Nc1ccc(-c2nnc(SCc3c(C)cc(C)cc3C)n2C)cc1	i	x	4.1%
N#Cc1cn(-c2ccccc2)nc1-c1cc2ccccc2oc1=O	i	0.07	11%
CC1CC(C)CN(c2nc3c(c(=O)[nH]c(=O)n3C)n2CCSc2nc3ccccc3o2)C1 (stereo unspecified)	i	-0.84	1.2%
CC1CCC(NC(=O)CN2CCC(n3nnc4cc(F)ccc43)CC2)CC1 (stereo unspecified)	i	-0.85	-0.2%
CC(C)C(C(=O)Nc1ccc(S(=O)(=O)N2CCOCC2)cc1)N1C(=O)c2ccccc2C1=O (stereo unspecified)	i	x	4.3%
CCCCCC(=O)N1CCCC(c2nc(-c3ccc(OC)cc3)no2)C1 (stereo unspecified)	i	x	3.2%
COc1ccc(S(=O)(=O)N(C)CC(=O)N2CCN(c3ccc(F)cc3)CC2)cc1OC	i	x	2.4%
CCCCCn1c(=NC(C)=O)c(C#N)cc2c(=O)n3cccc(C)c3nc21	i	0.88	-4.5%
CCOC(=O)c1ccc2nc(C)c3c(c2c1)OC(C)C3 (stereo unspecified)	i	-0.12	7.0%

The whole of this part, from the first entry:
SMILES	MT1-MMP reporter	WNV protease inh	Hsc70
CC(=O)Nc1nc(C)c(S(N)(=O)=O)s1	i	0.33	5.7%
Cc1cc(C)n2nc(S(=O)(=O)N(CC(C)C)CC(C)C)nc2n1	i	-0.5	2.0%
CC1(C)Cc2nc3oc4c(NCc5ccccc5)ncnc4c3cc2CO1	i	-1.6	-3.1%
COc1ccc(N(Cc2ccccc2)C(=O)CSc2nnc(Cn3nnc4ccccc43)o2)cc1	i	x	-5.2%
CC(=O)Nc1ccc(-c2nnc(SCc3c(C)cc(C)cc3C)n2C)cc1	i	x	4.1%
N#Cc1cn(-c2ccccc2)nc1-c1cc2ccccc2oc1=O	i	0.07	11%
CC1CC(C)CN(c2nc3c(c(=O)[nH]c(=O)n3C)n2CCSc2nc3ccccc3o2)C1 (stereo unspecified)	i	-0.84	1.2%
CC1CCC(NC(=O)CN2CCC(n3nnc4cc(F)ccc43)CC2)CC1 (stereo unspecified)	i	-0.85	-0.2%
CC(C)C(C(=O)Nc1ccc(S(=O)(=O)N2CCOCC2)cc1)N1C(=O)c2ccccc2C1=O (stereo unspecified)	i	x	4.3%
CCCCCC(=O)N1CCCC(c2nc(-c3ccc(OC)cc3)no2)C1 (stereo unspecified)	i	x	3.2%
COc1ccc(S(=O)(=O)N(C)CC(=O)N2CCN(c3ccc(F)cc3)CC2)cc1OC	i	x	2.4%
CCCCCn1c(=NC(C)=O)c(C#N)cc2c(=O)n3cccc(C)c3nc21	i	0.88	-4.5%
CCOC(=O)c1ccc2nc(C)c3c(c2c1)OC(C)C3 (stereo unspecified)	i	-0.12	7.0%
COC(=O)C1=C(Cn2cnc3ccccc32)NC(=O)NC1c1cc(C)ccc1C (stereo unspecified)	i	1.3	-6.4%
CN(C)c1nc(N)nc(Cn2ccnc2)n1	i	2.5	1.2%
CCOC(=O)c1ccccc1N/C=C1\CCCC1=O	i	-0.73	4.3%
O=C(OCC(=O)c1ccc[nH]1)c1ccc(S(=O)(=O)N2CCCCCC2)cc1	i	x	-3.1%
O=C(NC1CCCCC1)c1ccc(S(=O)(=O)N2CCCCC2)cc1	i	0.94	7.4%
COC(=O)c1c(NS(=O)(=O)Cc2ccccc2)sc2c1CCCC2	i	x	-0.7%
Cc1cccc(OCCCc2c(C)n[nH]c2C)c1	i	1.3	-3.1%
Cn1nccc1C(=O)Nc1ccccc1C(=O)O	i	0.4	2.9%
CCOC(=O)CSc1nnc(CNC(=O)c2ccccc2OC)n1-c1ccc(OC)cc1	i	-0.03	4.3%
NCC/C=C1/c2ccccc2CSc2ccccc21	i	x	-2.2%
Cc1cc(/C=C(\C#N)C(=O)NCc2ccco2)c(C)n1C1CCCC1	i	x	-2.2%
Cc1onc(-c2c(Cl)cccc2Cl)c1C(=O)NCC1CCCO1 (stereo unspecified)	i	1.2	2.2%
O=C(Cn1nnc(-c2ccccc2F)n1)NCCc1ccccc1	i	1	-1.8%
COc1ccc(-c2nnc(SCc3nnc(-c4ccc(Cl)cc4)o3)n2-c2ccccc2)cc1	i	-0.25	0.2%
CC(C)n1c(SCCCc2ccccc2)nc2c1c(=O)[nH]c(=O)n2C	i	-0.14	1.6%
COc1ccc(C2C(C(=O)N3CCN(c4ccccc4F)CC3)c3ccccc3C(=O)N2C)cc1 (stereo unspecified)	i	x	2.9%
CCn1c(C)cc2c(c1=O)C(c1ccccc1Br)C(C#N)=C(N)O2 (stereo unspecified)	i	1.4	3.0%
CCOC(=O)c1cc2c(N)c(C(=O)c3cc(C#N)c(SC)nc3C)sc2nc1C	i	-0.37	-8.5%
CN(C)CCN1C(=O)C(O)=C(C(=O)c2cc3ccccc3o2)C1c1ccccn1 (stereo unspecified)	i	x	-1.2%
CCN(CC)S(=O)(=O)c1ccc(S(=O)(=O)Nc2ccc3c(c2)oc2ccccc23)cc1	i	x	3.6%
COC(=O)c1ccccc1NC(=O)C(C)NS(=O)(=O)c1ccc(OC)cc1 (stereo unspecified)	i	-1.2	-4.4%
Cc1ccc(S(=O)(=O)NCCCOC(=O)Nc2ccncc2)cc1	i	0.81	-1.8%
NC(=O)CSc1nnnn1-c1ccc2c(c1)OCCO2	i	x	9.1%
Cc1nnc(SCC(=O)N2CCC(c3noc4ccc(F)cc34)CC2)s1	i	-0.04	2.8%
CC1(C)Cc2c(C#N)c(NCCCO)nc(-c3ccccc3)c2CO1	i	-0.59	-0.4%
CCn1c(CNc2ccc(OC)cc2)nnc1SCC(=O)N1CCCc2ccccc21	i	0.39	2.7%
CCOC(=O)c1c(N)sc(C(N)=O)c1C	i	-0.77	-0.7%
COc1ccc(-n2nc(C(=O)NCC(=O)NCc3ccco3)c3ccccc3c2=O)cc1	i	-1	-2.0%
O=C(Nc1nc(COc2ccccc2)cs1)C12CC3CC(CC(C3)C1)C2	i	x	1.4%
CC1(C(=O)O)Sc2[nH]c(=O)sc2C2c3ccccc3OC(=O)C21 (stereo unspecified)	i	-0.34	2.5%
CC1Cc2ccccc2N1c1ncnc2c1nnn2Cc1ccccc1 (stereo unspecified)	i	-1.1	-0.1%
O=C(COc1ccccc1Cl)NCCCN1CCOCC1	i	-0.31	0.2%
Cc1noc(C)c1COC(=O)C1CC(O)CN1S(=O)(=O)c1ccc(Cl)cc1 (stereo unspecified)	i	0.72	2.7%
Cc1occc1C(=O)NC1CCCCCC1	i	-0.58	4.1%
CCOC(=O)C1NC(=O)CC1c1ccccc1 (stereo unspecified)	i	x	-1.5%
CCCCOC(=O)CCn1c(=S)oc2ccccc21	i	-0.64	7.4%
O=C(Nc1nc(-c2ccc(S(=O)(=O)N3CCCCCC3)cc2)cs1)c1cccs1	i	0.11	0.5%
O=C(CN1CCN(c2ccccn2)CC1)NC1CCCCC1	i	x	-0.2%
COc1ccccc1N(CCC#N)C(=O)CSc1ccc2c(c1)OCCO2	i	-0.69	-5.2%
COC(=O)c1[nH]c2ccc(F)cc2c1NC(=O)CCN1CCN(C(=O)c2ccco2)CC1	i	-0.36	-1.6%
CC(C)CC(c1nnnn1CC1CCCO1)N1CCN(Cc2ccc3c(c2)OCO3)CC1 (stereo unspecified)	i	0.3	2.1%
C=CCn1c(N)cc(=O)nc1SCC(=O)N1CCN(c2ccc(F)cc2)CC1	i	-0.84	5.1%
CN=C1SC(CC(=O)Nc2sc3c(c2C#N)CCCC3)C(=O)N1C (stereo unspecified)	i	-1.3	3.8%
Cc1ccc2cc(-c3noc(C4CCCO4)n3)c(=O)[nH]c2c1 (stereo unspecified)	i	-1.1	-2.5%
CCN1C(=O)C(Cc2nc3ccccc3c(=O)n2C)c2ccccc21 (stereo unspecified)	i	0.09	-1.8%
Clc1ccc(-c2nn3c(-c4cccc(Cl)c4)nnc3s2)cc1	i	-0.01	-6.7%
CCSC1=C(C#N)C(=O)n2c1cc1c2CCCC1	i	1.1	-8.2%
(further entries)
SMILES	MT1-MMP reporter	WNV protease inh	Hsc70
O=c1n(Cc2ccccc2F)c2ccccc2n1Cc1ccccc1F	i	x	-2.4%
Cc1ccc(Cl)cc1N1CCN(S(=O)(=O)c2cccc(S(=O)(=O)N3CCCC3)c2)CC1	i	1.1	-4.5%
Cc1ccccc1-c1nc(CN2CCC(C(=O)NCCCN3CCCC3)CC2)c(C)o1	i	-0.1	-7.4%
Cn1c(=O)c2cc(S(=O)(=O)NCCC(=O)NCc3ccccc3Cl)ccc2n(C)c1=O	i	-0.27	4.2%
CCOc1ccc(CCNS(=O)(=O)c2c(C)n[nH]c2C)cc1OCC	i	0.49	-1.1%
Fc1ccc(-n2c(Cc3ccccc3)nnc2SCc2nc(-c3cccs3)no2)cc1	i	0.93	-1.9%
CCN(CC)CCNC(=O)COc1ccc(Cl)cc1Cl	i	x	-1.2%
N#CC(c1nc2ccccc2nc1N1CCCCC1)S(=O)(=O)c1ccc(Cl)cc1 (stereo unspecified)	i	0.3	-4.1%
CCOc1ccccc1NC(=O)CSc1nc(N)c(C#N)cc1C#N	i	0.6	-12%
CC(C)N(c1nnc(N)s1)C(C)C	i	x	2.7%
CCOC(=O)CSc1nc2cc(OC)ccc2cc1C#N	i	-0.6	1.5%
Cc1cc(C)c(N=C2CCCN2Cc2ccccc2)c(C#N)c1	i	x	-5.5%
CC1(C)C(c2cccs2)=[N+]([O-])C2(CCCCC/C2=N\O)N1O (stereo unspecified)	i	0.12	-0.7%
CC(=O)Nc1ccc(OC(=O)C(CCS(C)(=O)=O)N2C(=O)c3ccccc3C2=O)cc1 (stereo unspecified)	i	0.05	3.1%
O=C(OCCN1CCOCC1)c1ccc(OCCN2CCOCC2)cc1	i	0.47	-0.5%
CC1CN(C(=O)c2ccc(CNS(=O)(=O)c3cccc(C(F)(F)F)c3)cc2)CC(C)O1 (stereo unspecified)	i	x	12%
CCCC1O[C@@H]2CC3C4CCC5=CC(=O)C=C[C@]5(C)C4C(OC(C)=O)C[C@]3(C)[C@]2(C(=O)COC(C)=O)O1 (stereo partly specified)	i	x	0.5%
NC(=O)CN1C(=O)C(O)(CC(=O)c2ccccc2O)c2ccccc21 (stereo unspecified)	i	0.34	2.6%
CCC(=O)Nc1nn(C)c2nc3c(C)cccc3cc12	i	-0.22	4.7%
Cc1ccc(CC(=O)NCCCc2ccccc2)cc1	i	x	-0.7%
Cc1noc(C)c1CSc1nnc2n(-c3ccccc3)c(=O)c3ccccc3n12	i	-0.75	0.0%
COC(=O)CCC(=O)Nc1sc(C)c(C)c1C(N)=O	i	-0.63	9.3%
COC(=O)c1cc(CSc2nnc(NC3CCCCC3)s2)oc1C	i	-0.64	-3.1%
Cc1ccc(C2NC(=O)NC(O)(C(F)(F)F)C2C(=O)c2cccs2)o1 (stereo unspecified)	i	0.29	-1.2%
Cc1ccc(-c2noc(CC(c3ccccc3)c3ccccc3)n2)cc1	i	x	-1.2%
CCCn1nnnc1SCC(=O)N1CCN(C(=O)c2ccco2)CC1	i	x	0.5%
CCOC(=O)c1[nH]c(C)c(/C(O)=C2\C(=O)C(=O)N(CCN(C)C)C2c2ccncc2)c1C (stereo unspecified)	i	0.62	2.8%
CC(=O)c1cccc(NC(=O)C2CC(c3ccc(F)cc3)=NO2)c1 (stereo unspecified)	i	x	1.1%
O=C1c2cccnc2C(=O)N1Cc1ccc2c(c1)OCO2	i	-0.98	-1.0%
O=C(/C=C/N1CCOCC1)c1ccc(-c2ccccc2)cc1	i	-1.3	-0.3%
Cc1ccccc1NC(=O)CCN1CCCCCC1	i	0.01	4.8%
Cc1nn(C)cc1CNC(=O)c1cccc(Br)c1	i	x	3.0%
Nc1cc(N)nc(SCC(=O)NCC2CCCO2)n1 (stereo unspecified)	i	0.94	-6.4%
CC(=O)c1c(C)[nH]c(C(=O)Nc2ccc(C)cn2)c1C	+	-1	-0.5%
Cc1cccc(NC(=O)Cn2nnc(-c3cccs3)n2)c1C	i	0.67	1.0%
Cc1noc(C)c1S(=O)(=O)N1CCC(C(=O)N2CCC(N3CCCCC3)CC2)CC1	i	0.41	1.6%
CC1(C)N=C(/C=N/O)C=[N+]1[O-]	i	2	-0.1%
CCOc1cccc(/C(O)=C2/C(=O)C(=O)N(CCN3CCOCC3)C2c2cccnc2)c1 (stereo unspecified)	i	-1.4	1.9%
O=S(=O)(Nc1ccncc1)c1ccccc1	i	-0.89	-2.1%
COc1ccc(NC(=O)CCN2CCCCCC2)c(OC)c1	i	-0.38	-2.7%
CCCCOc1ccc(CNn2c(C)nc3ccccc3c2=O)cc1	i	-0.62	-6.2%
COCCCn1c(SCC(=O)Nc2cccc(C(=O)OC)c2)nnc1-c1ccncc1	i	1.2	3.1%
COc1cccc(NC(=O)CSc2nc3c(c(=O)n2C)SC(C)C3)c1 (stereo unspecified)	i	-0.1	3.0%
Cc1cc(C(=O)OCC(=O)N2CCc3ccccc32)c(C)o1	i	-0.96	1.9%
COc1ccc(-n2c(=O)cc(N3CCc4ccccc43)[nH]c2=O)cc1	i	-0.56	1.8%
